# RN4220 kill – S. aureus RN4220 growth inhibition. OD600, 16 h. inhibition, % (no concentration beside the values). 0.33% of 330,000 active;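 active = z-score of -3 or lower and OD600 up to 0.18 on both plates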;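 note: plate controls were untreated cells for no effect and reference antibiotic for full effect; stock transfer was 100 nL into about 80 µL; one replicate is shown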
# PrP 5UTR inh – suppresses PrP 5' UTR mRNA reporter expression; cell-based PrP 5' UTR mRNA reporter, plate reader; inhibition, % (no concentration beside the values); 0.35% of 340,000 active;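 active = every replicate at 50% or more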;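 note: 0 = median of the neutral control wells; tested in H4 reporter cells; numbers are from one replicate; inactives centre near -14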
# Bead autofluor – flagged as autofluorescent in microsphere protease counterscreen | AID 624483 | compound autofluorescence counterscreen, microsphere flow cytometry; stronger effect = higher value | 3.1% of 360,000 active | fluorescence intensity (test concentration not listed);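 active = at least 3 SD above the mean of all compounds, about 16000 in these data; inconclusive = too few beads counted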;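 note: 100 nL of 1 mM stock went into each well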
# Mtb hypoxia rep – Mtb hypoxia fluorescent reporter inhibition; M. tuberculosis hypoxia-regulated fluorescent reporter, fluorescence; fluorescence inhibition, % (no concentration beside the values); 0.1% of 300,000 active; AID 1159583;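 active = 35 to 45% if threefold the growth effect, above 45% if 1.5-fold the growth effect; inactive = the rest, general growth blockers included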;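 note: wells of about 50 µL received 100 nL stock; 0% = vehicle wells and 100% = reference inhibitor wells; whole bacteria with a GFP reporter of the hypoxia response; strong numbers were not always called active; many hits fall short of the cut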
# ugtP null kill – compounds lethal to S. aureus RN4220 ugtP deletion mutant | OD600 growth, 16 h; some inactives read as strong as hits | growth inhibition, % (concentration not given with the values) | 0.54% of 330,000 active;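 active = z-score under -3 and OD600 up to 0.15 on both plates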;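 note: plate controls were untreated wells for no effect and antibiotic for full effect; wells of about 80 µL received 100 nL stock; the first replicate is given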
# BJeLR viability – BJeLR cell viability loss; AID 1554; BJeLR (HRASV12) viability, CellTiter-Glo ATP luminescence, 48 h; reference of the scale not given here; 0.17% of 300,000 active; inhibition, % (no concentration beside the values);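 active = replicate mean above 50%; inconclusive = above 50% but judged a plate artefact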;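 note: 50 nL library stock added to about 25 µL; numbers are from one replicate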
# Mtb hypoxia rep growth – second read-out of Mtb hypoxia rep, no call of its own (marks repeat the call); growth inhibition, %; measured here: M. tuberculosis growth (absorbance);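 0% = vehicle and 100% = reference antibiotic; read after six days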
# Starred values were filed as active, the others as inactive; ? = inconclusive; . = no result given.
1. CN(CC(=O)Nc1ccc(Cl)cc1)C(=O)Cn1[nH]c(=O)c2ccccc2c1=O
2. N#CCCn1cc(C=C2NC(=S)N(c3ccccc3)C2=O)c(-c2ccc(-c3ccccc3)cc2)n1
3. O=C(NCCN1CCOCC1)c1cc2c(=O)n3ccccc3nc2n1Cc1ccccc1
4. FC(F)(F)c1ccccc1NN=Cc1cccnc1
5. O=C(c1ccccc1)n1c(=O)c(F)cn(COCCBr)c1=O
6. Cc1oncc1C(=O)Nc1ccc2ccccc2c1
screen / no.	1	2	3	4	5	6
RN4220 kill	2.2	1.9	2.1	9.0	14	-1.2
PrP 5UTR inh	6	.	-22	.	3	-19
Bead autofluor	3917	.	5208	.	3977	5003
Mtb hypoxia rep	6	3	2	-4	11	6
Mtb hypoxia rep growth	-3	3	2	2	11	3
ugtP null kill	1	6	-4	-8	33	-3
BJeLR viability	6	.	0	.	3	-1

7. FC(F)(F)c1cccc(Cc2noc(CN3CCSCC3)n2)c1
8. O=C(CCN1C(=O)c2ccccc2C1=O)NCCN1CCOCC1
9. CCN(CC(=O)Nc1c(F)cccc1F)C(=O)CC1CCCC1
10. CCOc1ccc(N2C(=O)CC(Sc3nc(C)cc(C)c3C#N)C2=O)cc1 (stereo not given)
11. COc1ccc(NC(=O)NNC(=O)COc2ccc(Cl)cc2C)cc1OC
12. CCc1ccc(C(=O)Nc2ccc3c(c2)n(C)c(=O)n3C)cc1
screen / no.	7	8	9	10	11	12
RN4220 kill	8.5	3.2	2.5	6.1	-1.0	6.5
PrP 5UTR inh	-18	-37	7	-18	-13	3
Bead autofluor	3194	10416	5568	7286	5265	3343
Mtb hypoxia rep	16	1	-6	8	-10	16
Mtb hypoxia rep growth	11	-10	3	7	-8	1
ugtP null kill	3	-1	-1	18	4	4
BJeLR viability	-2	-8	0	-10	2	-13

13. COc1ccc(OCC(=O)NNC(=S)NC(=O)c2ccc(Br)o2)cc1
14. COc1ccc(C2(CNC(=O)/C=C/c3ccco3)CCCC2)cc1OC
15. COc1cc2c(cc1OC)CN(C(=O)CSc1nc(C)cc(C)c1C#N)CC2
16. C=CCN1C(=O)c2ccc(C(=O)N(CC)CC(=O)Nc3cc(Cl)ccc3C)cc2C1=O
17. CCOc1ccccc1Nc1ccnc2cc(Cl)ccc12
18. O=C(COc1cccc(C(F)(F)F)c1)Nc1ccc2[nH]ncc2c1
screen / no.	13	14	15	16	17	18
RN4220 kill	17	-3.0	13	4.2	6.8	2.7
PrP 5UTR inh	-8	-6	-17	-27	-17	-7
Bead autofluor	6572	19955*	2535	?	4660	3702
Mtb hypoxia rep	10	9	9	9	9	-8
Mtb hypoxia rep growth	2	1	5	2	9	-11
ugtP null kill	-12	4	6	13	0	3
BJeLR viability	5	5	-11	6	5	-14

# Rewritten tab-delimited: part of the list above.
item	structure	RN4220 kill	PrP 5UTR inh	Bead autofluor	Mtb hypoxia rep	Mtb hypoxia rep growth	ugtP null kill	BJeLR viability
1	CN(CC(=O)Nc1ccc(Cl)cc1)C(=O)Cn1[nH]c(=O)c2ccccc2c1=O	2.2	6	3917	6	-3	1	6
2	N#CCCn1cc(C=C2NC(=S)N(c3ccccc3)C2=O)c(-c2ccc(-c3ccccc3)cc2)n1	1.9	.	.	3	3	6	.
3	O=C(NCCN1CCOCC1)c1cc2c(=O)n3ccccc3nc2n1Cc1ccccc1	2.1	-22	5208	2	2	-4	0
4	FC(F)(F)c1ccccc1NN=Cc1cccnc1	9.0	.	.	-4	2	-8	.
5	O=C(c1ccccc1)n1c(=O)c(F)cn(COCCBr)c1=O	14	3	3977	11	11	33	3
6	Cc1oncc1C(=O)Nc1ccc2ccccc2c1	-1.2	-19	5003	6	3	-3	-1
7	FC(F)(F)c1cccc(Cc2noc(CN3CCSCC3)n2)c1	8.5	-18	3194	16	11	3	-2
8	O=C(CCN1C(=O)c2ccccc2C1=O)NCCN1CCOCC1	3.2	-37	10416	1	-10	-1	-8
9	CCN(CC(=O)Nc1c(F)cccc1F)C(=O)CC1CCCC1	2.5	7	5568	-6	3	-1	0
10	CCOc1ccc(N2C(=O)CC(Sc3nc(C)cc(C)c3C#N)C2=O)cc1 (stereo not given)	6.1	-18	7286	8	7	18	-10
11	COc1ccc(NC(=O)NNC(=O)COc2ccc(Cl)cc2C)cc1OC	-1.0	-13	5265	-10	-8	4	2
12	CCc1ccc(C(=O)Nc2ccc3c(c2)n(C)c(=O)n3C)cc1	6.5	3	3343	16	1	4	-13

# New compounds follow
19. Cc1sc2nc(CSCC(=O)Nc3ccc(N4CCOCC4)cc3)[nH]c(=O)c2c1C
20. COCCn1c(C)cc(C=NNC(=O)c2cccnc2)c1C
21. O=C(CNC(=O)C1CCCCC1)NCCCO
22. O=C(NN=C1CCCCCCC1)c1ccc2ccccc2n1
23. CS(=O)(=O)c1cccc(C(=O)OCC(=O)NCc2cccs2)c1
24. NNc1nc(Nc2ccccc2)nc(Nc2ccccc2)n1
screen / no.	19	20	21	22	23	24
RN4220 kill	1.5	-1.0	1.6	4.4	4.0	10
PrP 5UTR inh	-29	.	-13	-30	-6	0
Bead autofluor	4304	.	12861	3912	7912	4807
Mtb hypoxia rep	-6	12	2	-14	6	3
Mtb hypoxia rep growth	1	9	2	-8	9	12
ugtP null kill	-2	8	-3	-3	5	-22
BJeLR viability	-7	.	-6	13	.	-1

25. Cc1cc(O)c(C(C)C)cc1NC(=O)Nc1cc(Cl)ccc1Cl
26. Cc1ccc(Cl)c(N/C=C/C(=O)c2ccccc2)c1
27. CCC(C)n1ncn(-c2ccc(N3CCN(c4ccc(O)cc4)CC3)cc2)c1=O (stereo not given)
28. CNc1c(NS(=O)(=O)c2cc(Cl)ccc2OC)c(=O)oc2ccccc12
29. CC(=O)Nc1ccc(S(=O)(=O)N(C)CC(=O)OCC(=O)N2CCc3ccccc32)cc1
30. Cc1cc(C)nc(NNC2=CC(=O)CC(C)(C)C2)n1
screen / no.	25	26	27	28	29	30
RN4220 kill	-3.4	2.3	2.9	2.0	1.8	4.3
PrP 5UTR inh	-4	-94	-2	3	-31	-4
Bead autofluor	3513	3830	2071	3668	2977	2523
Mtb hypoxia rep	-7	6	0	-6	.	12
Mtb hypoxia rep growth	1	1	3	10	.	-2
ugtP null kill	-25	5	6	2	0	2
BJeLR viability	.	-3	-20	-2	5	-2

31. CC1CCN(C(=O)C(=O)c2cn(CC(=O)N3CCCC3)c3ccccc23)CC1
32. CC(C)(C)c1ccc(C(=O)Nc2cccnc2)cc1
33. CCOc1ccc(S(=O)(=O)NCCC(=O)NCCCSc2ccccc2)cc1
34. O=C(Nc1cccc([N+](=O)[O-])c1)C1C2CCCCC21 (stereo not given)
35. CC(C)(C)C1CCc2onc(C(=O)NC3CCCC3)c2C1 (stereo not given)
36. CCOc1ccc(C2NC(=O)NC(C)=C2[N+](=O)[O-])cc1OC (stereo not given)
screen / no.	31	32	33	34	35	36
RN4220 kill	0.8	.	-1.1	4.8	3.2	3.1
PrP 5UTR inh	-16	-77	-20	-14	-20	-13
Bead autofluor	4906	3636	?	3454	21049*	4498
Mtb hypoxia rep	11	.	6	11	6	12
Mtb hypoxia rep growth	1	.	-3	5	8	1
ugtP null kill	6	.	6	-5	-2	9
BJeLR viability	-5	-1	3	0	-13	13

37. COc1ccccc1/C=c1\sc2nc(-c3ccco3)nn2c1=O
38. COc1ccc(C)cc1NC(=O)CN(C)S(=O)(=O)c1ccc2c(c1)n(C)c(=O)c(=O)n2C
39. Cc1cc(S(=O)(=O)N(Cc2cccs2)Cc2ccccc2F)ccc1-n1cnnn1
40. COc1cccc(CNC(=O)COC(=O)CCc2cc(OC)c(OC)c(OC)c2)c1
41. CCOC(=O)C1(CC2CCCCO2)CCN(S(=O)(=O)c2ccsc2)CC1 (stereo not given)
42. CCCCCN(C(=O)CCC(=O)OCc1ccc(Cl)cc1Cl)c1c(N)n(CCCC)c(=O)[nH]c1=O
screen / no.	37	38	39	40	41	42
RN4220 kill	.	1.9	2.5	7.0	7.1	-2.4
PrP 5UTR inh	1	-2	-9	-12	-12	-20
Bead autofluor	2600	5303	2539	6813	3397	5941
Mtb hypoxia rep	.	-1	-8	5	14	2
Mtb hypoxia rep growth	.	1	9	6	2	-1
ugtP null kill	.	7	-13	9	2	-9
BJeLR viability	-3	6	-2	.	1	-1

43. Cc1nonc1N1CCN(Cc2cn[nH]c2-c2ccc3c(c2)OCO3)CC1
44. CC(NC(=O)CN(c1cccc(C(F)(F)F)c1)S(=O)(=O)c1ccc(Cl)c([N+](=O)[O-])c1)c1ccccc1 (stereo not given)
45. CCOC(=O)c1c(C)nc(C)c(C(=O)OCC)c1-c1ccccc1
46. Cc1ccccc1C(=O)NNC(=S)NC(=O)c1ccc(Cl)cc1Cl
47. CCN(CC(=O)Nc1ccccc1OC)C(=O)CC1CC2CCC1C2 (stereo not given)
48. Cc1ccccc1N1CCN(C2CCCN(C(=O)c3ccccn3)C2)CC1 (stereo not given)
screen / no.	43	44	45	46	47	48
RN4220 kill	-0.9	14	-4.6	62	2.6	0.2
PrP 5UTR inh	-33	-20	-22	-32	-15	-18
Bead autofluor	2558	8284	9531	11749	4150	6690
Mtb hypoxia rep	-5	9	11	12	11	2
Mtb hypoxia rep growth	5	16	15	9	1	-4
ugtP null kill	0	58	0	39	5	9
BJeLR viability	10	9	-1	-3	.	5

49. C=CCN1c2ccccc2[C@]23CC(C(=O)OC)N(C(=O)c4cccs4)C2=NC(C(=O)OC)=C(C(=O)OC)C13 (stereo not given in full)
50. CCCCC1=CC2=C(c3ccco3)C(=O)C(C)(OC(=O)c3ccc(OC)cc3)C(=O)C2=CN1C1CC1 (stereo not given)
51. O=C(O)c1cc(-c2cccc(Cl)c2)nc2nc(N3CCCCC3)sc12
52. O=C(c1ccc(N2CCOCC2)cc1)c1cccs1
53. CCc1nc(N2CCN(C(C)=O)CC2)c2c3c(sc2n1)CC(C(C)(C)C)CC3 (stereo not given)
54. CCOC(=O)c1c(-c2ccccc2)oc2ccc(O)c(CN3CCCC3)c12
screen / no.	49	50	51	52	53	54
RN4220 kill	4.3	-2.0	8.5	5.3	3.0	0.6
PrP 5UTR inh	.	-26	-18	-36	-9	-16
Bead autofluor	.	3681	2210	9271	4048	17165*
Mtb hypoxia rep	-2	-2	0	9	4	.
Mtb hypoxia rep growth	3	2	1	11	3	.
ugtP null kill	4	-3	-14	-7	2	-23
BJeLR viability	.	-2	-3	-17	-6	11

55. O=C(CCn1c(=O)[nH]c2ccsc2c1=O)NCc1ccc(F)cc1
56. CC(C)(Cc1ccc(O)cc1)NC(=O)CC(=O)N=Nc1c(O)[nH]c2ccc(Br)cc12
57. CCOC(=O)CC(C)=NNc1ccc([N+](=O)[O-])cc1[N+](=O)[O-]
58. O=C(c1ccccc1)N1CCCc2ccccc21
59. CCCCn1c(=O)c(C(=O)NCc2ccccc2)c(O)c2ccccc21
60. NC(=O)CC(NC(=O)Cc1ccc(Br)cc1)c1ccc(NCc2ccc(F)cc2)c([N+](=O)[O-])c1 (stereo not given)
screen / no.	55	56	57	58	59	60
RN4220 kill	2.8	3.2	19	1.1	1.3	2.8
PrP 5UTR inh	-15	-21	.	-4	-9	-28
Bead autofluor	5020	1940	.	4517	3685	3527
Mtb hypoxia rep	10	11	11	4	7	2
Mtb hypoxia rep growth	3	-11	3	6	-12	4
ugtP null kill	5	-5	4	1	66	8
BJeLR viability	5	1	.	-4	-8	2

61. Cc1ccc(S(=O)(=O)Nc2ccc3c(c2)OCCO3)cc1C
62. O=C(O)Cn1c(O)c(C2=c3ccccc3=NC2=O)sc1=O
63. Nc1cc(S(=O)(=O)N2CCOCC2)ccc1N1CCCCC1
64. N/C(=N/OC(=O)c1ccccc1F)c1nonc1N
65. C[C@H]1CC[C@@]2(O[C@H](CCO)C[C@H](O)[C@H]2O)O1
screen / no.	61	62	63	64	65
RN4220 kill	-1.6	0.8	0.6	.	.
PrP 5UTR inh	6	-9	1	-19	-11
Bead autofluor	4321	3737	4092	2574	3961
Mtb hypoxia rep	6	-3	-7	.	.
Mtb hypoxia rep growth	-2	-3	8	.	.
ugtP null kill	6	-6	-3	.	.
BJeLR viability	2	-1	.	-5	-7

# From PubChem BioAssay
